Source: PubChem (Southern Research Institute)
Mtb growth: Confirmatory growth inhibition assay against Mycobacterium tuberculosis H37Rv, potency (AID 1949) | one-dose inhibition, % at 10 µg/mL; IC50 in µg/mL for titrated hits | most inactive calls were filed without a number and no value below 0 was filed | 100,000 tested, 1.6% active;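 active = confirmed in a dose series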;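 also: bacteria grown 7 days with compound before Alamar blue readout; 0% = untreated bacteria and 100% = reference antibiotic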
* = called active by the depositor; i = inactive. These rows are one share of the data, so the mix of outcomes need not match the whole.

Compound	Mtb growth
COc1ccc(S(=O)(=O)N(CC(=O)N2CCc3ccccc3C2)c2cc(Cl)ccc2OC)cc1OC	i
COc1cccc(-c2nc3cc(NC(=O)c4cncc(Br)c4)ccc3o2)c1	i
Cc1ccc(/C=C(/NC(=O)c2cccc(C)c2)c2nc3ccccc3[nH]2)cc1	1%
COc1ccc(OCC(=O)Nc2cc3oc4ccccc4c3cc2OC)cc1	10%
O=Cc1cccc(OCc2ccccc2Br)c1	1%
O=C(NCc1ccccc1)c1c(F)cccc1Cl	i
CCOc1cc(C=O)ccc1OCC(=O)NC(C)(C)C	i
O=C(Cc1c(F)cccc1Cl)Nc1cccnc1	i
COc1cc(Cl)c(S(=O)(=O)N2CCN(c3c(C)cc(C)cc3C)CC2)cc1Cl	2%
COc1ccc(OC)c(NC(=O)C(=O)NCc2ccccn2)c1	i
C#CCSc1nc(C)c2cc(C)ccc2n1	1%
Cc1cc(Cl)ccc1OCCN1CCCCC1	i
CC1Cc2ccccc2N1C(=S)NCC1CCCO1 (stereo not drawn)	i
COc1cc(NC(=S)NCc2ccco2)cc(OC)c1OC	i
COCCNC(=O)c1ccccc1NS(=O)(=O)c1ccc(OC)c(Cl)c1Cl	i
CCN(CC)C(=O)c1c(NC(=O)c2ccco2)sc2c1CCC(C)C2 (stereo not drawn)	i
CCc1ccc(OC(C)c2nnc(SCCC(=O)Nc3ccccc3)n2C)cc1 (stereo not drawn)	i
COc1cccc(CNc2nc3ccccc3n2C(C)C)c1O	i
CN1CCC(OC(=O)C23CCC(C)(C(=O)O2)C3(C)C)CC1 (stereo not drawn)	i
O=C1c2ccccc2S(=O)(=O)N1c1ccccc1Br	i
CNS(=O)(=O)c1ccc(NC(=O)c2csc3ccccc23)cc1	i
Cc1nc2ccc(I)cc2c(=O)n1C	i
COc1cc(C(=S)N2CCCC2)ccc1OCc1ccccc1F	i
COc1ccc(CNC2CCCCC2)c(OC)c1C	i
COc1ccc(C(C)=O)cc1CN1CCCCC1	i
COc1ccccc1NC(=O)c1ccc(-c2csc(C)n2)cc1	i
COc1ccc(Cc2nnc3c4cnn(Cc5ccccc5)c4ncn23)cc1	i
NC(=O)CSc1nnc(-c2cccc(F)c2)n1-c1ccccc1	i
COc1ccc(-c2nn(C)c(=O)c3ccccc23)cc1CNS(=O)(=O)c1ccc(Cl)cc1	i
CCN(CC)c1ccc(/C=C(\C#N)S(=O)(=O)c2ccccc2)cc1	i

Compound	Mtb growth
Cc1nn2c3ccc(N)cc3nc2c2ccccc12	18µg/mL*
CCOc1ccc(NC(=O)Nc2cc(OC)c(Cl)cc2OC)cc1	i
N#Cc1c(NC(=O)C2CC(=O)OC23CCCCC3)sc2c1CCCC2 (stereo not drawn)	i
COc1ccc(N(CC(=O)NCCSC2CCCCC2)S(C)(=O)=O)cc1OC	i
Cc1ccc2c(c1)c1c(n2CC(O)CN2CCCCCC2)C(=O)CCC1 (stereo not drawn)	6.2µg/mL*
COc1cccc(NS(=O)(=O)c2ccc(OC)c(Cl)c2Cl)c1	2%
CCCC(=O)Nc1ccc(Cl)c(NC(=O)COc2ccc(Cl)c(C)c2)c1	i
Cc1cccnc1NC(=O)Nc1cccc(C(F)(F)F)c1	i
COc1ccc(C)cc1NC(=O)CCN1CCCCC1	i
COc1ccc(CCNCc2ccccc2OCc2ccccc2)cc1OC	i
O=C1C2C3c4ccccc4C(c4ccccc43)C2C(=O)N1Cc1cccnc1 (stereo not drawn)	i
CCCC(=O)Nc1ccc(C(=O)N2CCCC2)cc1	i
Cc1ccc(NC(=O)c2ccccc2NC(=S)NC(=O)c2ccn(C)n2)cc1	4%
O=S(=O)(Nc1ccc(O)c(Sc2nc3ccccc3s2)c1)c1cccc2ccccc12	i
COc1ccc(NC(=O)NCCCN2CCCC2=O)c(OC)c1	i
COc1ccccc1OCCCCN1CCN(Cc2ccccc2)CC1	i
COc1ccc(S(=O)(=O)N(CC(=O)Nc2ccc(NC(C)=O)cc2)c2ccc(C)cc2)cc1OC	i
Cc1c(-c2ccc(Cl)cc2)nc2ccccc2c1C(=O)N1CCN(c2ccc([N+](=O)[O-])cc2)CC1	i
CCCc1cc(=O)oc2c(C)c(O)c(CN(C)C)cc12	i
O=S(=O)(c1ccccc1)N(CC(O)Cn1c2ccccc2c2ccccc21)c1ccccc1 (stereo not drawn)	1%
CCOC(=O)C(=O)Nc1ccccc1C(=O)Nc1ccc(OC)cc1	1%
O=C(CSc1nnc2c(n1)[nH]c1ccccc12)N1CCCCC1	i
N#C/C(=C\c1ccc(C(F)(F)F)cc1)S(=O)(=O)c1ccccc1	i
CSc1nc2n(n1)C(C)C1=C(CCCC1=O)N2 (stereo not drawn)	i
O=C(c1ccco1)N1CCN(S(=O)(=O)c2cccc(C(F)(F)F)c2)CC1	i
Cc1c(O)ccc(NS(=O)(=O)c2ccc(Cl)cc2)c1C	i
COC(=O)c1cc(OC)c(OC)cc1NC(=O)CN1CCCCC1	1%
CN1C2=C(C(=O)CCC2)C(c2cc(Cl)c(OCc3ccccc3)c(Cl)c2)C2=C1CCCC2=O	i
Cc1ccc(NC(=O)CSc2nncn2C)cc1Cl	i
COc1ccc(-c2nnc3c4ccccc4c(C)nn23)cc1S(=O)(=O)NC(C)c1ccccc1 (stereo not drawn)	1%

Ordered by SMILES length (lowest first): part of the list above
Compound	Mtb growth
Cc1ccc(NC(=O)CSc2nncn2C)cc1Cl	i
CCCC(=O)Nc1ccc(C(=O)N2CCCC2)cc1	i
COc1ccccc1OCCCCN1CCN(Cc2ccccc2)CC1	i
COc1ccc(NC(=O)NCCCN2CCCC2=O)c(OC)c1	i
COc1ccc(CCNCc2ccccc2OCc2ccccc2)cc1OC	i
Cc1c(O)ccc(NS(=O)(=O)c2ccc(Cl)cc2)c1C	i
CCOc1ccc(NC(=O)Nc2cc(OC)c(Cl)cc2OC)cc1	i
O=C(CSc1nnc2c(n1)[nH]c1ccccc12)N1CCCCC1	i
N#Cc1c(NC(=O)C2CC(=O)OC23CCCCC3)sc2c1CCCC2 (stereo not drawn)	i
Cc1ccc2c(c1)c1c(n2CC(O)CN2CCCCCC2)C(=O)CCC1 (stereo not drawn)	6.2µg/mL*
COc1ccc(N(CC(=O)NCCSC2CCCCC2)S(C)(=O)=O)cc1OC	i
O=C1C2C3c4ccccc4C(c4ccccc43)C2C(=O)N1Cc1cccnc1 (stereo not drawn)	i
Cc1ccc(NC(=O)c2ccccc2NC(=S)NC(=O)c2ccn(C)n2)cc1	4%
O=C(c1ccco1)N1CCN(S(=O)(=O)c2cccc(C(F)(F)F)c2)CC1	i
COc1ccc(-c2nnc3c4ccccc4c(C)nn23)cc1S(=O)(=O)NC(C)c1ccccc1 (stereo not drawn)	1%
CN1C2=C(C(=O)CCC2)C(c2cc(Cl)c(OCc3ccccc3)c(Cl)c2)C2=C1CCCC2=O	i
Cc1c(-c2ccc(Cl)cc2)nc2ccccc2c1C(=O)N1CCN(c2ccc([N+](=O)[O-])cc2)CC1	i

Next results:
Compound	Mtb growth
O=C(NC(=S)Nc1cc(C(F)(F)F)ccc1N1CCOCC1)c1ccc(Br)cc1	i
O=C(COc1ccc2c3c(c(=O)oc2c1)CCC3)Nc1ccc(S(=O)(=O)N2CCOCC2)cc1	i
O=C(CN(Cc1ccc(Cl)cc1)S(=O)(=O)c1ccccc1)NCc1cccnc1	3%
CCOC(=O)Nc1nnc(Cc2ccc(Cl)c(Cl)c2)s1	i
Cn1c(=O)c2c(nc(SCC(=O)Nc3ccc4c(c3)OCCO4)n2Cc2ccccc2F)n(C)c1=O	i
Cc1nc2ccccc2n2c(-c3ccccc3)c3c(=O)n(C)c(=O)n(C)c3c12	1%
Cc1ccc(S(=O)(=O)N(c2ccccc2)C2C=CS(=O)(=O)C2)cc1 (stereo not drawn)	i
COC(=O)c1c(C)oc2cc(Br)c(OC(C)=O)cc12	i
Cc1ccc(O)c(NC(=O)c2ccccc2-c2ccccc2C(=O)O)c1	11%
CCOC(=O)c1c(NC(=O)c2csc(C)c2C)sc(C(=O)Nc2ccccc2C)c1C	i
Cc1onc(-c2ccccc2Cl)c1C(=O)N1CCCCCC1	4%
COc1c(C)cc(Br)cc1C(=O)Nc1cc(-c2nc3ccccc3o2)ccc1C	i
O=C(CCc1ccccc1)Nc1ccc(I)cc1Cl	i
Cc1scc(C(=O)NC2=NCCS2)c1-c1ccccc1	i
CCOc1ccc2c(=O)c(-c3ccccc3Cl)c(C)oc2c1	10%
CCN(CC)c1ccc(/C=C/c2[nH]c(=O)[nH]c(=O)c2[N+](=O)[O-])cc1[N+](=O)[O-]	i
Cc1cccc(NC(=O)c2ccc(C)o2)c1	i
Cc1cc(SCC(=O)Nc2ccccc2F)nc2ccccc12	i
CSc1c(C)cccc1OCC(=O)NCc1ccccc1	1%
CC(C)(C)C(=O)CSc1nc2ccccc2o1	i
Cc1cc(C)c(NC(=O)CN(c2ccc(C(C)C)cc2)S(C)(=O)=O)c(C)c1	i
CC(=O)c1cccc(NC(=O)Nc2ccccc2Cc2ccccc2)c1	i
O=C(NC(=S)Nc1ccc(S(=O)(=O)N2CCCC2)cc1)c1sc2ccccc2c1Cl	i
COC(=O)c1ccc(CC2CCCC2=O)o1 (stereo not drawn)	i
O=C(Cc1cccc2ccccc12)Nc1ccc2[nH]c(=O)[nH]c2c1	i
CCOC(=O)c1ccc(NC(=O)CN(c2ccccc2Br)S(C)(=O)=O)cc1	i
CC(CNC(=O)COc1ccccc1)OC(=O)Nc1cccc(Cl)c1 (stereo not drawn)	i
O=C(CCN1C(=O)c2ccccc2C1=O)Nc1ccccc1C(=O)N1CCCC1	i
CCc1ccccc1NC(=O)CN(c1c(C)cccc1C)S(C)(=O)=O	i
COc1ccc(C(=O)Nc2cccc(C)c2C)c(OC)c1	i

Compound	Mtb growth
Cc1cc(OCC(=O)N2CCOCC2)cc2oc(=O)c3ccccc3c12	i
O=C(C(Cl)Cl)N1CCN(c2ccccc2F)CC1	i
COc1ccc(-c2cc(=O)c3cc(OCc4ccccc4)ccc3o2)cc1	i
O=C(Nc1ccc(NC(=O)c2ccccc2-c2ccccc2C(=O)O)cc1)c1cccs1	39%
COC(=O)c1ccc(Cl)c(NC(=O)CCc2ccccc2)c1	i
Cn1c(=O)c2c(nc(SCc3ccc(F)cc3Cl)n2Cc2ccccc2F)n(C)c1=O	i
CCOC(=O)c1c(NC(=O)CSc2ccc(Cl)cc2)sc(C(C)=O)c1C	0%
COc1ccc(Cl)cc1NC(=O)CSc1nnc(-c2cccc(C)c2)n1C	i
Cc1ccc(S(=O)(=O)/C(C#N)=C\c2cccc3ccccc23)cc1	i
C=CCOc1ccc(C2NC(=S)NC(C)=C2C(=O)OC)cc1OC (stereo not drawn)	i
CCc1c(C)sc(NC(=S)Nc2cnn(Cc3c(F)cccc3Cl)c2)c1C(=O)OC	1%
O=C(Nc1ccc2c(c1)ncn2C1CCCCC1)c1cccs1	0%
CC(=O)c1cc(C(N)=O)c(=S)[nH]c1C	1%
Cn1c(=O)c2c(nc(NC3CCCCC3)n2C)n(C)c1=O	i
CN(C)CCNC(=O)c1ccc([N+](=O)[O-])cc1	i
CCOC(=O)c1ccc(NC(=O)C(=O)NCc2cccc(OC)c2)cc1	i
Cc1ccccc1OC(=O)COc1ccc2ccccc2c1	2%
Cn1c(CNC(=O)c2ccccc2F)nnc1SCC(=O)Nc1nc2ccccc2s1	i
S=C(NCCN1CCOCC1)NC1CC1	i
COc1ccc(NC(=O)c2ccc(-c3ccccc3[N+](=O)[O-])o2)c(OC)c1	i
CCNC(=O)CN(c1ccc(CC)cc1)S(C)(=O)=O	i
CNCCCOc1c(C)cc(Cl)cc1Br	i
CCOc1cc(C(=S)N2CCCC2)ccc1OC(=O)c1ccc(Cl)cc1Cl	3%
CN(C)C(=O)N1CCN(c2cccc(C(F)(F)F)c2)CC1	3%
O=C(Nc1nc2ccccc2[nH]1)c1ccco1	1%
C=CCn1c(SCc2ccc([N+](=O)[O-])cc2)nnc1-c1sc2ccccc2c1Cl	i
Cc1ccccc1C(=O)N1CCC(C(=O)Nc2ccc(Cl)c(C(F)(F)F)c2)CC1	i
COc1ccc(S(=O)(=O)Nc2ccccc2SC)cc1OC	i
Cc1c(Cl)cccc1NS(=O)(=O)c1ccc(NS(=O)(=O)c2cccs2)cc1	i
CCOc1ccc(S(=O)(=O)N2CCCCC2)c(C)c1C	i

SMILES | Mtb growth
CC(C)OC(=S)N/C(=N/S(=O)(=O)c1ccccc1)c1ccccc1 | i
CN(C)CCCNC(=O)Nc1ccc(F)c(Cl)c1 | i
Cc1cc(-c2ccc(NC(=O)Nc3ccccc3)c(C)c2)ccc1NC(=O)Nc1ccccc1 | i
CSc1cccc(NC(=O)CN(c2cc(Cl)ccc2C)S(=O)(=O)c2ccc(C)cc2)c1 | i
CC(C)(C)c1ccc(C(=O)N2CCC(C(=O)Nc3ccc4c(c3)OCCO4)CC2)cc1 | 5%
COc1cc(CO)cc(I)c1OCC(=O)Nc1ccccc1 | i
O=C(Nc1cccc(NC(=O)C23CC4CC(CC(C4)C2)C3)c1)c1ccc(F)cc1 | 6%
COc1ccc([N+](=O)[O-])cc1NC(=O)CSCc1ccccc1C | i
COc1ccc(/C=C/C(=O)Nc2ncc(Cc3ccc(F)cc3)s2)cc1 | 1%
CCc1ccc(NC(=O)c2ccccc2Sc2ccc([N+](=O)[O-])cc2)cc1 | i
COc1cc(NC(=O)CSc2ncnc3sc4c(c23)CCCC4)cc(OC)c1 | i
Cc1cc(OCC(=O)N2CCN(C(=O)COc3ccc(Cl)c(C)c3)CC2)ccc1Cl | i
COC(=O)COc1ccc(-c2ccc(C)cc2)cc1 | 0.22µg/mL*
O=S(=O)(NC(=S)c1ccccc1)c1ccc(F)cc1 | i
Cc1ccc2nc(-c3ccc(NC(=O)COc4ccccc4)cc3)[nH]c2c1 | i
Cn1c(SCC(=O)Nc2cc(Cl)cc(Cl)c2)nnc1-c1ccc(Cl)cc1 | i
Cc1ccc(NS(=O)(=O)c2ccc(NC(=S)NC(=O)CCc3ccccc3)cc2)cc1C | i
